Source: PubChem BioAssay (several laboratories)
Rce1 inhib = blocks yeast Ras-converting enzyme. Q03530. yeast membranes, quenched prenylated peptide cleavage fluorescence. calls only. 290,000 compounds, 0.27% hits. AID 2563;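 active means fall in fluorescence gain of 50% or more versus controls, with final raw signal at or below 3038400; inconclusive means same 50% fall but final raw signal above 3038400; inactive means fall in fluorescence gain under 50%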;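 further: plate controls were neutral control wells for no effect and wells lacking membranes for full effect; tested at 10 µM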
CSC inhib = blocks cancer stem cells | cancer stem cell-like cells viability, luminescence | inhibition, % at 7.5 µM | 300,000 compounds, 1.1% hits | AID 2717;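 active means mean at 75% or more and at least half the replicates too; inconclusive means mean and replicates disagree; tested in HMLE shEcad cells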;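 further: 0% = median of negative and 100% = median of positive control wells; the first replicate is given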
MT1-MMP act inh = MT1-MMP (human) activation inhibition. P50281. HT1080 RFP-PRO-GFP cells, GFP/RFP ratio fluorescence, overnight; percent of plate control window, DMSO zero. GFP/RFP ratio change, % at 20 µM. 360,000 compounds, 0.061% hits. AID 651647;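 active means GFP/RFP ratio change of at least 30% with cell ATP level not reduced by more than half and red fluorescence within 50% of control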; further: strong numbers were not always called active
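Test system: HT1080 RFP-PRO-GFP cells; Benchmarks: DMSO and RFP-L50D-GFP cell wells; Timing: cells overnight before dosing, compound overnight, 37 °C, 5% CO2; Compound: one 20 µM compound dose with 1% DMSO; Read-out: GFP/RFP fluorescence ratio.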
UUG fidelity = yeast start codon fidelity modulation | S. cerevisiae UUG-firefly luciferase reporter, luminescence/redox ratio | activity score, % at 18.7 µM | 350,000 compounds, 0.13% hits | AID 602363;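 active means replicate mean at a twofold rise or more, about +100% in these data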;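 further: firefly luciferase made from a UUG start codon reports start codon fidelity; reporter light over untreated wells divided by growth signal over untreated wells; some hits fall short of that in this replicate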
eIF4H FP inh = inhibitors of RNA binding by human eIF4H; 290,000 compounds, 0.94% hits; inhibition, % at 35 µM; Q15056; eIF4H fluorescence polarization binding assay;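 active means 50% or more with normal probe brightness, or confirmed in later tests; inconclusive means above 50% with abnormal brightness, or retests that disagree; inactive means below 50% or failed in later tests; about a fifth of its hits are not listed in these tables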;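 further: calls also rest on retests at 20 µM and on dose response follow-up; 0% = protein and probe with vehicle and 100% = probe without protein; strong numbers were not always called active; many hits fall short of the cut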
PABP polyA inh = blocks human PABP binding to poly(A) RNA | 290,000 compounds, 1% hits | AID 2014 | P11940 | fluorescence polarization | inhibition, % at 35 µM;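 active means 50% or more with normal probe brightness, or confirmed in later tests; inconclusive means above 50% with abnormal brightness, or retests that disagree; inactive means below 50% or failed in later tests; about a fifth of its hits are not listed in these tables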;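 further: calls also rest on retests at 20 µM and on dose response follow-up; controls were probe without protein and protein plus probe with vehicle; some compounds called inactive have numbers as strong as hits; many hits fall short of the cut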
Target sequence (P11940 whole entry, looked up): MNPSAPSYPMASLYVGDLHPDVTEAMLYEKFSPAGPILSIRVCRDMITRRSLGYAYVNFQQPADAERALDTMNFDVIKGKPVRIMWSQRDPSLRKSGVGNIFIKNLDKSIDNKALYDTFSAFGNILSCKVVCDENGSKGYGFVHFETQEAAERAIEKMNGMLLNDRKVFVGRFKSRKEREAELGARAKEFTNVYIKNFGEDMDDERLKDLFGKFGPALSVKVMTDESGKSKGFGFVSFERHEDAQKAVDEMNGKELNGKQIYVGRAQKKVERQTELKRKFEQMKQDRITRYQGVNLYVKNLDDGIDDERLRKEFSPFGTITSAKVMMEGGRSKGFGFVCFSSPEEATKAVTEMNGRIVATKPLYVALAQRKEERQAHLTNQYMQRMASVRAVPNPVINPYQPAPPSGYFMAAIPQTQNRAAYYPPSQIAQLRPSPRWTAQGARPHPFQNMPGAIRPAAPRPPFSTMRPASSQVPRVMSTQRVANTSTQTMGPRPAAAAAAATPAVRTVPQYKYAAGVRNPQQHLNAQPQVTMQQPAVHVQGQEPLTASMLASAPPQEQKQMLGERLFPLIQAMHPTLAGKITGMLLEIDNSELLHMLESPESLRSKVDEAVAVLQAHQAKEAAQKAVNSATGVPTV
HIV Env fusion = blocks HIV Env-driven cell-cell fusion | HeLa-JRFL Env/CEM21 cell fusion, luciferase | 360,000 compounds, 1.1% hits | inhibition, % at 12.3 µM | AID 651610;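 active means mean replicate inhibition score of at least 50 and every replicate individually at or above 50; inconclusive means only one of the two criteria met; inactive means mean below 50 and not all replicates reaching 50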;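 further: 0% = plate neutral controls and 100% = maraviroc near 300 nM; one replicate is shown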
eIF4H FP inh retest = further read-out of eIF4H FP inh, marked with its call; inhibition, %; compound at 20 µM; confirmation average;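 mean of two retest wells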
PABP polyA inh retest = second read-out of PABP polyA inh, no call of its own (marks repeat the call); inhibition, %; compound at 20 µM; confirmation repeats;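 mean of two retest wells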
MT1-MMP act inh RFP = second read-out of MT1-MMP act inh, no call of its own (marks repeat the call); RFP signal change, %; measured here: RFP expression control read;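 0 = vehicle wells; hits needed this value within 50% of zero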
Starred values were filed as active, the others as inactive; i = inactive; ? = inconclusive; . = not tested or not shown.

SMILES	Rce1 inhib	CSC inhib	MT1-MMP act inh	MT1-MMP act inh RFP	UUG fidelity	eIF4H FP inh	PABP polyA inh	HIV Env fusion	others
Cc1cc(C)c(O)c(-c2cc(C(=O)NCCc3ccc(S(N)(=O)=O)cc3)[nH]n2)c1	.	9	7	1	-29	-16	4	6
CSc1ccc(C#N)cc1NC(=O)c1ccc(Cl)cc1	i	8	0	1	-21	-3	-2	.
Cc1nc(-c2ccc(F)cc2)c(CC(=O)N2CCN(S(=O)(=O)c3cccc(Cl)c3)CC2)s1	i	-8	-2	0	4	.	.	-2
COc1cc(OC)c(OC)cc1CN1CCN(C(=O)CC(C)C)CC1	i	-9	4	2	-3	14	15	4
COc1ccccc1NC(=O)c1nn(C)cc1Br	i	-13	-3	-1	-16	0	-10	.
COc1ccc(/C(=N/Nc2ncnc3ccccc23)C(=O)O)cc1	i	-9	6	6	-24	10	-2	-15
COc1cc(/C=N/NC(=O)CC2(C)OCCCO2)ccc1OCc1ccccc1	i	-3	-1	-2	.	-3	0	5
CCOC(=O)c1c(NC(=S)Nc2cccnc2)sc(C)c1C	i	-5	1	2	.	2	1	-22
CCCOc1ccc(C(=O)NNC(=S)NC(C)=O)cc1	i	10	3	0	-47	13	-6	?
O=C(Nc1nc(-c2cccs2)c(-c2cccs2)s1)C1CCCC1	i	.	-40	-30	.	1	2	.
CC(C1CC1)N(Cc1ccccc1)C(=O)NC(=O)c1ccccc1 (configuration not stated)	i	-11	4	4	.	-10	0	-4
Cc1ccc(N=Nc2c(C)[nH]n(C(N)=S)c2=O)cc1	i	-4	6	0	-25	13	12	-64
CC(C)NC(=O)c1ccccc1N(Cc1ccccc1)S(C)(=O)=O	i	.	1	6	4	-1	-2	-5
COCCCNC(=O)c1cn(CCOC)c(=O)c2c1c1ccccc1n2C	i	6	-3	4	-8	7	-1	14
CCCC1Cc2c(sc3nc(SC)nc(N)c23)CO1 (configuration not stated)	.	.	0	-1	-1	-4	-11	.
Cc1cccc(C)c1NC(=O)CNC(=O)CCCc1c[nH]c2ccccc12	i	23	1	2	0	.	.	38
COc1ccc(C2OC(=O)CC2C(=O)NC2CCCCCC2)cc1OC (configuration not stated)	i	6	5	1	.	7	6	.
O=C(CCn1nnc2ccccc2c1=O)N[C@@H](Cc1c[nH]c2ccccc12)C(=O)O	i	-11	-5	-4	-8	-9	17	6
CN(C(=O)CSc1n[nH]c(-c2cccs2)n1)C1CCS(=O)(=O)C1 (configuration not stated)	i	-12	5	2	-6	.	.	1
Cc1cc(C)cc(NC(=O)CSc2nc3[nH]ncc3c(=O)[nH]2)c1	i	54	-5	0	.	-4	9	4
COC(=O)CN1C2=NCCCN2c2ccccc21	i	-4	0	0	.	-3	-2	3
COc1ccc(N2CCN(S(=O)(=O)c3cnc[nH]3)CC2)cc1	i	-2	3	7	.	0	10	0
CCN(CC)C1CCN(C(=O)c2ccc(OC3CCN(Cc4ccccn4)CC3)cc2)C1 (configuration not stated)	i	7	1	3	-8	2	4	-9
CC(=O)Nc1ccc(C(C)=NNC(=O)C2CCCC2)cc1	.	.	2	2	-9	.	.	20
COc1cc(C(=O)NCc2ccco2)cc(OC)c1OC	i	-7	0	4	.	11	1	-30
Cc1ccc(C2=[N+]([O-])C(C)N(O)C2(C)C)o1 (configuration not stated)	i	3	2	9	-13	3	12	.
Cc1cc(S(=O)(=O)N2c3ccc(F)cc3CCC2C)ccc1-n1cnnn1 (configuration not stated)	i	-11	-1	-1	.	1	8	8
CCCCCN(C(=O)CCC(=O)OCC(=O)NCc1cccc(OC)c1)c1c(N)n(CCCC)c(=O)[nH]c1=O	i	-4	-6	-2	18	-5	9	9
Nc1ccnn1Cc1ccncc1	i	-10	0	4	.	-11	-4	1
COC(=O)c1ccccc1NC(=O)Cn1cnc2cc(C)c(C)cc21	i	-13	4	-14	-8	-6	2	.
O=C(C[N+]1(CC#Cc2ccccc2)CCCCC1)c1ccc(Cl)cc1	i	6	1	-1	.	-6	-16	-3
CC1(C)CC(N=Cc2c(O)n(Cc3ccc4c(c3)OCO4)c(=O)c3ccccc23)CC(C)(C)N1	i	-10	-2	-1	.	-12	9	9
C=CCn1c(SCC(=O)NC23CC4CC(CC(C4)C2)C3)nc(O)cc1=O	i	-15	0	1	-6	-1	11	.
CC(Sc1nnc(N)s1)C(=O)Nc1ccc(N2CCOCC2)cc1 (configuration not stated)	i	-7	4	4	-19	1	2	.
CCCCNC(=O)N(O)C1N(/N=C/c2cccnc2)C(=S)SC1(C)C (configuration not stated)	i	-6	4	3	.	-2	-4	12
COc1ccc(NC(=O)c2cc3c(CO)cnc(C)c3oc2=Nc2cccc(F)c2)c(OC)c1	i	17	3	0	-9	4	-5	19
Cc1cccnc1Sc1c([N+](=O)[O-])ncn1C	.	-18	0	1	8	6	2	2
COc1ccc(N2C(=O)[C@@H]3[C@H](C2=O)[C@H]2c4ccccc4C=CN2[C@@H]3C(=O)Nc2ccccc2)cc1	.	.	-27	9	-21	?	?	-182
Cc1c(C)c2cc(Cl)c(OCC(=O)N3CCN(c4ccc(F)cc4)CC3)cc2oc1=O	i	-11	4	8	-4	.	.	2
Cc1ccc(-n2c(SCC(=O)NC3CCS(=O)(=O)C3)nc3ccccc3c2=O)cc1 (configuration not stated)	i	-16	-6	-2	.	7	2	-7
CC(=O)Nc1ccc(S(=O)(=O)N(C)c2ccc(OCC(=O)OCC(=O)N3CCCCC3)cc2)cc1	i	-8	4	5	.	0	-10	-5
CC(=O)c1ccc(N(C(=O)c2ccco2)C(C(=O)NC2CCCC2)c2ccc(N3CCOCC3)cc2)cc1 (configuration not stated)	i	-19	4	6	-10	-15	4	-6
COC(=O)C1CCN(C(=O)C2CCN(C(=O)[C@@H](NS(=O)(=O)c3ccc(C)cc3)C(C)C)CC2)CC1	.	-3	-1	5	-3	0	6	.
CCN1CCN(c2c(Cl)cccc2NC(=O)c2ccc([N+](=O)[O-])cc2)CC1	i	-1	-1	5	.	-3	-22	-41
CCCCC(=O)N(C)c1c(CC)nc2c(OCC3CCCCC3)cccn12	.	.	-22	-28	-6	.	.	31
CCCCCOc1ccc(C(=O)Nc2ccc(S(=O)(=O)Nc3cc(C)on3)cc2)cc1	i	.	-2	-9	-14	-6	6	-7
C/C(=N\NC(=O)c1ccc(CN2CCOCC2)cc1)c1ccc([N+](=O)[O-])cc1	i	-19	6	0	12	8	1	33
CCCNC(=O)c1ccc(N2CCC3(CC2)CC(c2ccccc2)=NO3)c(NC(=O)c2cccc(OC)c2)c1	i	-28	.	.	-16	-13	-10	-3
Cn1c(=O)[nH]c(=O)c2c1nc(CN1CCN(c3cccc(Cl)c3)CC1)n2CCN1CCOCC1	i	-10	-2	-2	-3	-5	7	3
O=C(Cc1ccccc1)Nc1nnc(-c2ccccc2)o1	i	-5	2	3	7	-16	-6	8
CSc1ccc(/C=C(\C#N)C(=O)Nc2cccc(C)c2)cc1	i	-2	0	4	1	-3	-1	-10
CC(=O)c1cc2c(cc1NC(=O)CCc1ccccc1)OCO2	i	-2	11	-1	-11	-1	-8	.
CC1(C)CC(=O)C(C=NCCc2ccc(S(N)(=O)=O)cc2)=C(O)C1	i	-3	2	0	-22	2	4	15
CC1S/C(=C(\C#N)C(N)=O)N(c2ccc(F)cc2)C1=O (configuration not stated)	i	-6	-5	3	-26	-1	1	-24
Cc1ccc(SC(=O)COc2ccc(C)c(C)c2)cc1	i	-16	-6	-2	-3	-6	-10	-99
O=C(NCc1ccc2c(c1)OCO2)C(=O)NCC1OCCN1S(=O)(=O)c1ccc(F)cc1 (configuration not stated)	i	19	-2	-2	5	1	-3	0
CCOc1ncccc1C(=O)N(C)CC(=O)Nc1ccccc1SC	i	7	0	3	.	-8	25	10
CC(C)(C)OC(=O)NCc1ccc(CNC(=O)c2[nH]cnc2C(=O)Nc2ccccc2F)cc1	.	.	0	-25	-11	.	.	33
O=C(COC(=O)c1ccc(Cl)nc1)NC(=O)c1ccccc1	i	2	1	3	-13	8	12	10
Cc1nnc(SCC(=O)NC2CCCCC2)n(N)c1=O	i	2	7	7	.	-10	-10	.

(next part)
SMILES	Rce1 inhib	CSC inhib	MT1-MMP act inh	MT1-MMP act inh RFP	UUG fidelity	eIF4H FP inh	PABP polyA inh	HIV Env fusion	others
Cc1ccc2cn[nH]c2c1NC(N)=S	i	-11	3	4	.	0	-12	39
CC(=O)Nc1cccc(NC(=O)CSc2nnnn2C)c1	i	.	.	.	.	-5	-4	-7
O=C(Cn1ccc2ccccc2c1=O)NCCC(=O)Nc1ccc2c(c1)OCCO2	i	-19	1	-2	-8	4	0	-68
CN1CCN(c2ccc(NS(=O)(=O)c3ccc(Cl)cc3)cn2)CC1	i	-7	-9	2	.	28	-2	10
Cc1csc(SCC(=O)Nc2nc(-c3ccccc3)cs2)n1	i	-12	3	4	-4	-14	1	.
COc1cccc2[nH]c3c(N4CCCCC4)ncnc3c12	i	7	32*	-2.0*	-12	-1	3	-57
CN(C)S(=O)(=O)c1cccc(NC(=S)NC2CCCCC2)c1	i	-4	2	1	-22	0	-8	6
COc1cc(CNc2ncnc3c2ncn3[C@H]2CN(Cc3cccc(C(F)(F)F)c3)C[C@@H](COC(C)=O)O2)cc(OC)c1OC	.	.	-3	-3	-8	.	.	-6
Cc1cc2c(SCC(=O)N3CCN(c4ccccc4)CC3)ncnc2s1	i	-9	5	4	.	.	.	0
COc1ccc(N2C(=O)c3ccccc3C2O)cc1 (configuration not stated)	i	-13	-2	3	5	-9	-5	-20
CCC1=NN(C(=O)Cc2ccc(OC)c(OC)c2)C(O)(C(F)(F)F)C1 (configuration not stated)	i	-6	1	-1	.	-3	10	.
Cc1nnc(NC(=O)C2c3ccccc3Oc3ccccc32)s1	i	-8	-1	-3	-7	3	91	.	eIF4H FP inh retest=-12;PABP polyA inh retest=0
COCC(=O)N1CCC(Oc2ccc(C(=O)N(C)C(C)c3ccon3)cc2)CC1 (configuration not stated)	i	0	-3	0	-10	-9	-16	.
CC1(C(=O)O)CCC(C(=O)NNC(=O)c2ccccc2O)C1(C)C (configuration not stated)	i	1	3	4	-13	-2	2	5
O=C(Cc1ccccc1)NC1CCN(S(=O)(=O)c2cccc(F)c2)CC1	i	2	-1	2	-17	1	-3	-23
COc1ccc(N(CC(=O)NCc2cccnc2)S(=O)(=O)c2ccc(C)c([N+](=O)[O-])c2)cc1	i	11	-2	-2	.	4	-2	-7
CCN(CC)C(=O)CSc1nc(-c2ccc(C)cc2)nc2c1COC(C)(C)C2	i	6	-1	-10	-2	-1	-1	-5
Cc1ccc(S(=O)(=O)/N=C(\CCl)N2CCOCC2)cc1	i	14	-5	1	1	0	23	8
CN1CCN(c2nc3c(c(=O)[nH]c(=O)n3C)n2Cc2ccc(Cl)cc2)CC1	i	1	-4	-2	-9	-2	2	11

Grouped by structure, the compounds so far with a CF3 group (2)
SMILES	Rce1 inhib	CSC inhib	MT1-MMP act inh	MT1-MMP act inh RFP	UUG fidelity	eIF4H FP inh	PABP polyA inh	HIV Env fusion	others
COc1cc(CNc2ncnc3c2ncn3[C@H]2CN(Cc3cccc(C(F)(F)F)c3)C[C@@H](COC(C)=O)O2)cc(OC)c1OC	.	.	-3	-3	-8	.	.	-6
CCC1=NN(C(=O)Cc2ccc(OC)c(OC)c2)C(O)(C(F)(F)F)C1 (configuration not stated)	i	-6	1	-1	.	-3	10	.

A portion of the library, so the mix of outcomes need not match the whole.
